Source: PubChem
Calb FLC = C. albicans growth modulation with fluconazole; C. albicans CaCi-2 (fluconazole-resistant clinical isolate) + fluconazole, Alamar Blue growth, 48 h; actives 0.57% (n = 300,000); growth inhibition, % (test concentration not listed); AID 1979;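 active = most replicates above 75%; inconclusive = exactly half above 75%; inactive = most below 75%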;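 also: all wells also contain fluconazole at 8 µg/ml as a sub-toxic cotreatment; 0% = median of DMSO wells and 100% = median of geldanamycin control wells; wells of about 8 µL received 7.5 nL stock; the first replicate is given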
ALR inh = inhibitors of human sulfhydryl oxidase ALR; P55789; purified ALR, DTT oxidation, H2O2 HRP-luminol luminescence; inhibition, % (test concentration not listed); actives 3.8% (n = 290,000); AID 485317;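 active = mean and each replicate at 75% or more; inconclusive = only one of the two met; inactive = neither met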;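 also: stock transfer was 7.5 nL into about 7.5 µL; 0% = neutral wells and 100% = wells with inactivated enzyme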
Target sequence (P55789 whole entry, looked up): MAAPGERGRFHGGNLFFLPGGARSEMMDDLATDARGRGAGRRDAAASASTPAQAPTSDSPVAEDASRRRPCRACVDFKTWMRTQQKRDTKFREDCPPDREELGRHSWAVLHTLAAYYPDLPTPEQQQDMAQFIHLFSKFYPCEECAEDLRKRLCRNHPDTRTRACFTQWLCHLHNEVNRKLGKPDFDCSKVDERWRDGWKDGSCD
Beta apoptosis = beta cell apoptosis inhibition; protection from apoptosis, % (test concentration not listed); AID 435005; INS-1E cytokine-induced death, ATP luminescence, 48 h; percent of positive-control rescue, neutral wells zero; actives 0.8% (n = 300,000);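 active = all replicates at 75% or more, or half of them and the mean; inconclusive = half reach 75% but not the mean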;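 also: 0% = cytokine-treated negative control wells and 100% = positive control rescue; higher means more ATP so stronger rescue from cytokine killing; wells of about 40 µL received 100 nL stock; the first replicate is given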
Ecoli rRNA inh = selective bacterial rRNA inhibition in E. coli; E. coli WT GFP vs humanized-ribosome RFP mutants, fluorescence, 24 h; stronger effect = lower value; DMSO median 0, no signal -100; GFP signal change (wild-type ribosome), % (test concentration not listed); actives 1.6% (n = 350,000);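 active = significant combined selectivity score with lowered wild-type GFP, culture density cut under 30%, mutant RFP and density less affected; inactive = any of these conditions unmet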; also: one replicate is shown; some compounds called inactive have numbers as strong as hits
B2AR ag = activates human beta-2 adrenergic receptor causing internalization. P07550. Am2.2-beta2AR cells, FAP receptor internalization, flow cytometry; reference of the scale not given here. response, % (concentration not given with the values). actives 0.43% (n = 340,000);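 active = response above a set limit, near 3 SD of response in nonfluorescent compounds, cut at about 42% in these data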;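 also: stock transfer was 100 nL into about 11 µL; a reference agonist was the positive control; negative values mostly stem from fluorescent compounds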
Target sequence (P07550 whole entry, looked up): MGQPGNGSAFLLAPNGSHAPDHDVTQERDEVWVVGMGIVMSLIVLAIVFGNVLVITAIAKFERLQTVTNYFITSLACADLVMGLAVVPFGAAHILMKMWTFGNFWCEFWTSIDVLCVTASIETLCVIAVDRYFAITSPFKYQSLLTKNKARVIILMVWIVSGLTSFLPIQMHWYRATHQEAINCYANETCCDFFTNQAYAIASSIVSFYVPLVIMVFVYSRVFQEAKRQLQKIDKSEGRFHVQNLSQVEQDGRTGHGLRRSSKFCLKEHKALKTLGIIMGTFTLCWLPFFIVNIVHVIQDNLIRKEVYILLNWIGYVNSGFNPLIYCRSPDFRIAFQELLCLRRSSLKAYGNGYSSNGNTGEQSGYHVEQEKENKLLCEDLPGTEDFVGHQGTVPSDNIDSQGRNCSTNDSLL
A1 inh = inhibitors of the anti-apoptotic protein A1, read as caspase activation. MEF A1-2A-BIM cells, Caspase-Glo 3/7 luminescence, 3 h; percent of clofoctol response, vehicle zero. caspase activation, % (concentration not given with the values). actives 0.066% (n = 330,000);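 active = over half of replicate activation scores above 10%, or exactly half above 10 with the replicate mean above 10; inconclusive = replicate mean below 10 yet half the replicates above 10; inactive = over half of replicates below 10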;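 also: wells of about 30 µL received 50 nL stock; many hits fall short of the cut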
T cruzi repl = T. cruzi replication inhibition; AID 1885; actives 1.4% (n = 300,000); inhibition, % (test concentration not listed); T. cruzi beta-gal in NIH3T3, luminescence, 90 h;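 active = mean inhibition across valid replicates above about 55%, limit read from the data; inconclusive = mean below that limit but half or more replicates reach it; inactive = mean below it, under half of replicates reach it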;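 also: signal also drops with host cell toxicity which is not excluded here; 0% = plate median of DMSO wells and 100% = zero luminescence signal; higher percent means less beta-gal luminescence so fewer parasites; stock transfer was 50 nL into about 50 µL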
LANA-H2A inh = blocks KSHV LANA binding to histone H2A/H2B; Q9QR71; cell-free LANA-H2A/H2B peptide, fluorescence polarization; inhibition, % (concentration not given with the values); actives 0.6% (n = 320,000); in the data active = inhibition mostly above about 10%, no sharp cut-off; inactive = mostly below about 6.7%;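 also: stock transfer was 7.5 nL into about 10 µL; 0% = median of vehicle wells and 100% = median of positive control wells; one replicate is shown; the record names a cut of 25% in any replicate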
Ecoli rRNA inh OD600 = second read-out of Ecoli rRNA inh, no call of its own (marks repeat the call); OD600 change, %; measured here: OD600 growth;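 optical density of the mix in the first replicate; 0 = DMSO median and -100 = no signal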
Ecoli rRNA inh RFP = recorded beside Ecoli rRNA inh, whose call it bears; RFP signal change, %; measured here: RFP humanized mutant strains;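 first replicate; 0 = DMSO median and -100 = no signal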
* = called active by the depositor; ? = inconclusive; . = not tested or not shown; & = joins results of further samples.

SMILES	Ecoli rRNA inh OD600	LANA-H2A inh	Calb FLC	B2AR ag	A1 inh	Ecoli rRNA inh RFP	ALR inh	T cruzi repl	Beta apoptosis	Ecoli rRNA inh
O=C(CC(=O)Nc1ccc(Br)cc1)Nc1ccc(Br)cc1	16	1.6	-1	-13	0.8	2.9	-80	-2	1	7
CCOC(=O)N1CCN(C(=O)CN2C(=O)COc3ccc(C(C)(C)C)cc32)CC1	0	-1.1	-7	-2	0.1	-3.7	-5	-4	3	3
CC(C)Cc1nnc(NC(=O)CCC(=O)NCCc2ccc(Cl)cc2)s1	8	-2.7	9	2	1.4	1.6	.	-2	-1	-1
Cc1ccccc1-c1cc(C(=O)NCc2cccc(Br)c2)n(CC2CC(c3cccnc3)=NO2)n1 (configuration not stated)	-2	-0.2	.	4	0.4	2.9	4	.	2	1
CCC(=O)NCc1nc2ccccc2n1Cc1ccccc1F	.	-4.0	-15	12	-0.2	.	-5	-3	-1	.
COc1ccc(C(O)c2nccc3cc(OC)c(OC)cc23)cc1OC (configuration not stated)	9	-2.2	8	-4	0.3	-2.6	-45	5	7	-1
Cc1nc2ccc(NC(=O)c3cncc(Br)c3)cc2s1	0	6.6	11	2	-2.0	1.0	-2	-9	-2	-2
COC(=O)CC1C(=O)NCCN1C(=O)c1c(F)cccc1F (configuration not stated)	4	-3.8	4	4	0.4	-3.0	-4	-3	-9	1
O=C(NC1CCC(=O)N(CCOc2ccccc2)CC1)OCc1ccccc1 (configuration not stated)	8	1.2	-13	7	2.6	0.7	-11	-5	-5	-1
CCOC(=O)C1(C)NC(c2cccs2)C2C(=O)N(c3ccccc3)C(=O)C21 (configuration not stated)	10	-12	0	4	-0.6	0.1	-7	-24	-2	9
O=C1C2C3C=CC(C3)C2C(=O)N1c1ccccc1OS(=O)(=O)c1ccccc1 (configuration not stated)	.	-2.3	-8	8	0.9	.	0	4	-1	.
N#CCC(=N)N1CCN(c2ccccc2Cl)CC1	.	-0.1	0	.	0.2	.	.	5	-10	.
CC(C)CC(=O)NNC(=O)c1ccc(Cl)cc1	17	-0.1	10	-1	-0.3	1.2	-3	-17	-1	13
COc1cc2c(cc1OC)C(c1ccc(Cl)cc1)=NCC2	0	-5.6	-5	-2	0.5	-0.8	19	-8	-23	3
CCC(c1nnnn1Cc1ccc2c(c1)OCO2)N1CCN(CC)CC1 (configuration not stated)	11	0.6	1	-6	0.6	-0.1	0	5	-2	11
Cc1ccc(C)c(-n2c(-c3ccc4c(c3)OCO4)n[nH]c2=S)c1	.	-5.4	28	0	0.7	.	83*	-5	0	.
COc1ccc(N2CC(C(=O)N/N=C/c3cc([N+](=O)[O-])ccc3O)CC2=O)cc1 (configuration not stated)	6	4.4	-2	2	-0.5	-3.2	-2	-9	-3	9
Cc1ccc(-c2nc3ncccn3c2Nc2ccc3c(c2)OCO3)o1	.	5.9	-3	-6	0.6	.	99*	17	-1	.
COc1ccccc1NC(=O)C1CC(O)CN1C(=O)Oc1ccccc1 (configuration not stated)	7	20	2	-3	-0.4	0.3	.	-4	-2	6
COc1ccccc1NC(=O)C(=O)NCCC1CCCCN1S(=O)(=O)c1ccc(F)cc1 (configuration not stated)	-10	.	8	-7	-0.3	3.6	.	20	-9	-8
COc1cccc(CNC(=O)CCS(=O)(=O)c2ccc3c(c2)CC(C)N3C(=O)C2CC2)c1 (configuration not stated)	0	-0.6	2	.	0.3	0.5	-16	0	0	3
O=C(COc1ccccc1Cl)NCc1ccco1	.	-3.1	.	0	0.4	.	5	.	1	.
Cc1cccc(C)c1NS(=O)(=O)c1ccc(-c2cnc(C3CC3)o2)cc1	-62	.	0	21	.	11	13	35	.	-23
COc1ccc(OC)c(NC(=O)NCCCCc2ccccc2)c1	-14	3.8	14	0	1.7	-3.2	2	40	5	-1
O=C(NC(=S)N1CCN(c2ccc(O)cc2)CC1)c1ccco1	10	-1.0	.	2	-0.2	3.5	99*	.	2	10
Cc1noc(C(=O)Nc2cccnc2Cl)c1Cl	6	-0.5	-5	-3	-0.3	0.3	-14	-10	-5	10
COc1ccc(NC(=O)C2CC(=O)OC2c2ccccc2)cc1 (configuration not stated)	.	-1.6	13	12	0.7	.	-7	-1	8	.
CN(CC(=O)Nc1cccc2ccccc12)C(=O)c1ccc(NC(=O)CC#N)cc1	16	-4.1	.	2	3.6	5.3	94*	.	-10	4
CCCCN(CC)CCCNC(=O)c1ccc(CS(=O)(=O)c2c(Cl)cccc2Cl)o1	8	-6.8	0	-1	?	-1.0	.	43	1	4
N#Cc1c(C(F)(F)F)cc(-c2ccc(Cl)cc2)[nH]c1=O	.	2.4	-2	7	-4.7	.	7	-4	.	.

Next part.
SMILES	Ecoli rRNA inh OD600	LANA-H2A inh	Calb FLC	B2AR ag	A1 inh	Ecoli rRNA inh RFP	ALR inh	T cruzi repl	Beta apoptosis	Ecoli rRNA inh
CN1C(=O)NC(c2cccc([N+](=O)[O-])c2)C2=C1CC(C)(C)CC2=O (configuration not stated)	-35	-0.8	-2	7	0.0	4.5	5	-5	-5	-19
CCOC(=O)c1cc(CC)sc1NC(=O)C1CC(=O)NN1Cc1ccccc1 (configuration not stated)	-4	0.2	8	-4	?	1.3	-2	22	5	-16
CC(C)=CCCC(C)CN1CCC(N2CCC(C(=O)NC(C)C)CC2)CC1 (configuration not stated)	13	-1.2	-8	3	1.6	-0.1	-3	3	6	11
COc1ccc(CC(=O)Nc2cccc(-c3ccc4nnc(C)n4n3)c2)cc1OC	-15	-4.3	-20	-1	0.4	-1.9	-1	-1	2	-18
COc1ccc(C(=O)O)cc1S(=O)(=O)Nc1ccccc1Cc1ccccc1	1	.	-3	-13	.	-0.2	.	-14	.	-5
COC(=O)c1ccc(CS(=O)(=O)c2ccc(F)cc2)o1	10	-0.1	11	0	-0.6	-2.0	-2	-7	-15	9
COc1ccccc1NC(=O)Cc1csc(NC(=O)c2ccccc2)n1	-24	-6.5	-8	-6	?	-0.6	-7	9	3	0
O=C(Nc1ccccc1)OCCOc1ccc(Br)cc1	-4	-4.1	-3	-17	-0.6	0.5	4	-4	-1	2
Clc1ccccc1C1SCC2Nc3ccccc3CN21 (configuration not stated)	.	2.0	-14	6	0.0	.	98*	8	-8	.
Cc1cccc(N(C(=O)Cn2nnc3ccccc32)C(C(=O)NCc2ccco2)c2ccncc2)c1C (configuration not stated)	.	2.8	8	3	-1.3	.	-27	-12	-3	.
COCCCN(C(=S)NC(=O)c1ccc(C(C)(C)C)cc1)c1c(N)n(Cc2ccccc2)c(=O)[nH]c1=O	.	2.8	25	8	-1.2	.	.	0	-8	.
Cc1c(Cl)cccc1NC(=O)CCN1CCN(C)CC1	.	-2.5	-3	-2	0.7	.	-12	4	2	.
C[C@@H]1CN([C@@H](C)CO)C(=O)c2cccc(NC(=O)Nc3ccc(F)cc3)c2O[C@@H]1CN(C)Cc1ccc(Oc2ccccc2)cc1	-28&-27	6.1	.	20	-0.8	3.3&5.1	-4	.	66	-6&-12
O=C(CCCOc1ccc(Cl)cc1Cl)NCc1ccncc1	-27	-1.2	5	-9	0.4	-3.3	10	3	0	-20
CCOC(=O)c1cc(S(=O)(=O)NCCc2ccc(OC)c(OC)c2)cn1C	7	2.6	1	-2	0.5	0.9	-2	-8	-2	2
O=C1NC(c2ccco2)Nc2sc3c(c21)CCN(Cc1ccccc1)C3 (configuration not stated)	17	3.3	.	-10	-0.1	1.4	5	.	-10	5
O=C(O)CCC(=O)OC1CC2CCC1C2 (configuration not stated)	.	0.1	-13	-2	0.4	.	-12	-2	.	.
Cc1ccc(NC(=O)c2ccccn2)cc1S(=O)(=O)N1CCOCC1	8	3.9	-13	1	-0.1	1.7	18	5	-1	10
CCc1cc(C(=O)O)c(NC(=O)C(c2ccccc2)c2ccccc2)s1	.	-5.9	0	2	-0.5	.	8	3	-5	.
Cc1c(NC(=O)COC(=O)Cc2ccc(Cl)cc2)c(=O)n(-c2ccccc2)n1C	.	0.2	6	-6	0.3	.	4	-14	-3	.
CCOC(=O)c1c(C)[n+]([O-])c2ccc3c(non3O)c12	-41	-2.2	43	5	-0.6	-14	8	-1	-7	-26
CC(C)(C)OC(=O)C(C)(C)Sc1nnc(N)s1	-2	-9.0	8	9	2.6	0.9	-2	-6	-14	6
CCc1ccc(NC(=O)CN2C(=O)CSC2=O)cc1	.	2.1	1	0	-0.5	.	96*	7	-3	.
CN(CC(=O)NCc1ccc(Cl)cc1)S(=O)(=O)c1cccc2cccnc12	-12	3.0	-2	-7	0.1	-6.0	-52	6	-3	-9
CC1CCCCN1S(=O)(=O)c1ccc(C(=O)Nc2ccccc2-c2nc3ccccc3s2)cc1 (configuration not stated)	4	-0.3	-4	3	1.1	-2.0	.	-5	2	4
Cc1noc(C)c1CSCC(=O)N1CCN(c2ccc([N+](=O)[O-])cc2)CC1	.	-1.9	9	-2	-0.1	.	-12	20	0	.
COC(=O)Cc1c(O)ccn(CCc2ccc(OC)c(OC)c2)c1=O	13	1.4	-5	.	0.6	0.9	6	-11	-9	12
COc1ccc(CC(CC(=O)O)C(=O)Nc2ccc(OC)cc2)cc1 (configuration not stated)	.	1.5	12	-1	2.1	.	-8	-2	0	.
Nc1ccc(Nc2ccncc2[N+](=O)[O-])cc1	.	0.9	-11	4	-0.4	.	.	5	7	.
CCOC(=O)C1CCN(C(=O)C2CCN(C(=O)c3ccc([N+](=O)[O-])cc3)CC2)CC1	.	2.0	4	3	0.3	.	-2	30	.	.

Continuation:
SMILES	Ecoli rRNA inh OD600	LANA-H2A inh	Calb FLC	B2AR ag	A1 inh	Ecoli rRNA inh RFP	ALR inh	T cruzi repl	Beta apoptosis	Ecoli rRNA inh
Nc1nc(-c2ccc(F)cc2)cc(C(F)(F)F)n1	.	-3.4	-3	-5	0.8	.	-6	-13	-1	.
COCCn1c(SCC(=O)NC2CCCCC2)nnc1-c1ccncc1	7	-6.6	-1	4	-0.4	1.5	4	-17	-7	11
Cn1c(CNc2cccc(Cl)c2)nnc1SCC(=O)OC1CCCCC1	.	-4.3	8	14	-0.4	.	-2	-18	-1	.
COCCCNC(=O)c1ccc2c(=O)n(Cc3ccc4c(c3)OCO4)c(=S)[nH]c2c1	.	4.4	-2	1	-0.4	.	2	-2	-8	.
N#Cc1ccc(N2Cc3ccccc3/C2=N/C(=O)Nc2ccc(Cl)cc2)cc1	.	1.7	15	4	0.4	.	.	17	-1	.
COc1cc(/C=N/NC(=O)C2CC(=O)N(c3ccc(C)cc3)C2)cc(OC)c1OC (configuration not stated)	19	1.8	7	3	0.0	0.2	-2	1	-1	12

A portion of the library. The share of hits here may be higher or lower than overall.
